Ecoli growth: inhibitors of Escherichia coli growth; OD600, 23 h; stronger effect = lower value; OD600 absorbance (concentration not given with the values); 330,000 tested, 0.21% active; AID 1053175;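 active means OD600 absorbance below the run mean of sample wells minus 3.6 SD, in any replicate, cut at about 0.56 in these data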;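 further: stock transfer was 300 nL into about 60 µL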
Vif TR-FRET: HIV-1 Vif–A3G interaction blockers – biochemical, TR-FRET, GST-Vif 1-94, biotin-A3G peptide, dose response retest, primary screen (AID 1117319) | TR-FRET GST-Vif / biotin-A3G peptide binding; higher % means a stronger effect; test concentration not given here; strong numbers were not always called active | inhibition, %; hits with a dose series show IC50 in µM | 260,000 tested, 0.57% active;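 active means above the screen mean plus three standard deviations and confirmed in dose response; inconclusive means results disagree or hit not tested in dose response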;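 further: Vif residues 1-94 fused to GST binding biotinylated APOBEC3G peptide 110-148; 0% = full assay without inhibitor and 100% = GST in place of GST-Vif; retest series ran down from 100 µM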
Bfl-1 A1 inh: inhibitors of the anti-apoptotic protein A1, read as caspase activation | MEF A1-2A-BIM cells, Caspase-Glo 3/7 luminescence, 3 h; percent of clofoctol response, vehicle zero | caspase activation, % (test concentration not listed) | AID 2462 | 330,000 tested, 0.066% active;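 active means over half of replicate activation scores above 10%, or exactly half above 10 with the replicate mean above 10; inconclusive means replicate mean below 10 yet half the replicates above 10; inactive means over half of replicates below 10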;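 further: wells of about 30 µL received 50 nL stock; many hits fall short of the cut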
Beta2AR agonist: activates human beta-2 adrenergic receptor causing internalization | P07550 | 340,000 tested, 0.43% active | Am2.2-beta2AR cells, FAP receptor internalization, flow cytometry; reference of the scale not given here | response, % (concentration not given with the values);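 active means response above a set limit, near 3 SD of response in nonfluorescent compounds, cut at about 42% in these data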;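 further: stock transfer was 100 nL into about 11 µL; a reference agonist was the positive control; negative values mostly stem from fluorescent compounds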
HNF4A DNA FP: change in binding of human HNF4 alpha to DNA | P41235 | HNF4a-FITC DNA binding, fluorescence polarization, 1 h | activity change, % at 10 µM | 360,000 tested, 0.3% active | AID 1224865; in the data active means activity change above about 30%, passing the limit was not always enough;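 further: controls were the assay level and a saturating level of protein; the project sought stronger binding though the title names inhibitors; some compounds called inactive have numbers as strong as hits; positive values seem to mean higher polarization but the record does not say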
LANA-H2B inh: blocks KSHV LANA binding to histone H2A/H2B; 320,000 tested, 0.6% active; inhibition, % (test concentration not listed); cell-free LANA-H2A/H2B peptide, fluorescence polarization; Q9QR71; AID 2629; in the data active means inhibition mostly above about 10%, no sharp cut-off; inactive means mostly below about 6.7%;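 further: stock transfer was 7.5 nL into about 10 µL; 0% = median of vehicle wells and 100% = median of positive control wells; one replicate is shown; the record names a cut of 25% in any replicate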
Target sequence (Q9QR71 whole entry, looked up): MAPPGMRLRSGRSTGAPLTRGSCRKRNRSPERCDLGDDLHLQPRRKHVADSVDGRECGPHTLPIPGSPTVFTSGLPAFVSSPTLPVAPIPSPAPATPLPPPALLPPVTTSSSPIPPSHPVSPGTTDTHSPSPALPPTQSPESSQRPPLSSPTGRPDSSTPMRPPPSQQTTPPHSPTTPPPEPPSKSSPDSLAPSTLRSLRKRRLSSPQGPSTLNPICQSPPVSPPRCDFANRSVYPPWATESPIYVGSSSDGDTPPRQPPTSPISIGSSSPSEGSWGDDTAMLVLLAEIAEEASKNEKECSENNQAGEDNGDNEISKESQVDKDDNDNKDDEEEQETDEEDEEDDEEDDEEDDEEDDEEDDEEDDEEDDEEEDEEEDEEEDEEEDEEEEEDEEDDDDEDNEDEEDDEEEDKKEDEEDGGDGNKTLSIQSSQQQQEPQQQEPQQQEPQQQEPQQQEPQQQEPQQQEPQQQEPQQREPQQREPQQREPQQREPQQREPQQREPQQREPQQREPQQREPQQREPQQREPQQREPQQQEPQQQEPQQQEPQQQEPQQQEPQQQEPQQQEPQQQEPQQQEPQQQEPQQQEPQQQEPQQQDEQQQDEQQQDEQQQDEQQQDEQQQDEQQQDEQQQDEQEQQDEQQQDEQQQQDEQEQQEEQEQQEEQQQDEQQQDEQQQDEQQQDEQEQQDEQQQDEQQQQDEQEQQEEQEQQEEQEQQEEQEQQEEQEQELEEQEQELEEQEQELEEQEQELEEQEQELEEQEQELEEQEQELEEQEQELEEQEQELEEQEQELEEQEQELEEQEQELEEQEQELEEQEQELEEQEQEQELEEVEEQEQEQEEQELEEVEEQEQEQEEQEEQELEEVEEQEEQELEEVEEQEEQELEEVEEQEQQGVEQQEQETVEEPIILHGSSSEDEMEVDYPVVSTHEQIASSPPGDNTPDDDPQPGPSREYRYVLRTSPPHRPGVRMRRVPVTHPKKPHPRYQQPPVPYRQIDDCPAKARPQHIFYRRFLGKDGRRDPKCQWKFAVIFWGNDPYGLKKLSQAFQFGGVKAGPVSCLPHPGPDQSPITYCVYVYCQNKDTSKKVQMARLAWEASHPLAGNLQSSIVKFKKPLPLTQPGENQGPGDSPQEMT
UCH37 inh: blocks the human deubiquitinase UCH37 | Q9Y5K5 | purified proteasome/UCH37, Ub-AMC cleavage fluorescence | inhibition, % (test concentration not listed) | 330,000 tested, 0.33% active;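 active means mean of two replicates above 20%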;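 further: 0% = compound-free wells with enzyme and 100% = wells lacking proteasome; stock transfer was 100 nL into about 20 µL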
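system = Proteasome-associated human UCH37 deubiquitinase | amount = 0.15 nM proteasome as dispensed | medium = pH 7.4 Tris-HCl (50 mM) with ovalbumin, ATP-MgCl2, DTT | incubation = 30 min preincubation with enzyme, 25 min cleavage at room temperature | detection = AMC fluorescence 355/460 nm | read-out basis = percent inhibition | controls = no-proteasome and no-compound wells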
* hit, by the source's call; ? = inconclusive; / = no result given.

SMILES	Ecoli growth	Vif TR-FRET	Bfl-1 A1 inh	Beta2AR agonist	HNF4A DNA FP	LANA-H2B inh	UCH37 inh
O=C(CN=C1NC(=O)C(c2ccccc2)(c2ccccc2)N1)NCc1ccc(F)cc1	0.65	/	0.4	2	2.4	-1.1	3.8
Cc1cc(Cl)c(S(=O)(=O)NC(C)C)cc1OCC(N)=O	0.68	8%	0.3	-1	0.9	-0.5	2.1
CCOc1ccccc1/C=C(/NC(=O)c1ccccc1)C(=O)N1CCCCC1	0.7	5%	-0.3	1	-0.4	-0.8	4.1
CCc1ccccc1N(CC(=O)O)S(C)(=O)=O	0.73	-2%	-0.1	-9	0.5	-0.7	0.0
COc1ccc(S(=O)(=O)N2CCN(c3ccc(F)cc3)CC2)cc1C(=O)N1CCCC1	0.69	/	-0.7	1	0.0	6.0	2.5
COc1ccc(OC)c(C2=NOC(C(=O)N3CCCc4ccccc43)C2)c1 (stereo unspecified)	0.67	-15%	-0.4	3	-5.4	0.0	-7.4
Oc1ccc2oc3c(c2c1C=NCc1ccncc1)CCCC3	0.71	24%	0.7	-1	-15	4.0	5.9
COc1cc(C2c3c(-c4ccccc4)n[nH]c3C(=O)N2c2ccccc2)ccc1O (stereo unspecified)	0.66	1%	-0.4	-1	-0.4	0.1	2.1
CCN1C(=O)[C@H]2[C@@H](c3ccc(C)cc3)N3C(=O)N(c4cccc(Br)c4)C(=O)[C@@]3(C)[C@H]2C1=O	/	/	/	-7	-0.2	/	1.8
Cn1ccnc1SCC(=O)Nc1ccc2nc(SCC(=O)NC3CC3)sc2c1	0.74	0%	-4.7	/	/	-4.0	1.7
CCOC(=O)c1nn(-c2ccc3c(c2)OCO3)cc1O	0.68	21%	-5.3	-4	-0.3	1.5	-18
O=C(NCc1ccc(Cl)cc1)C(=O)NCC1OCCN1S(=O)(=O)c1cc(F)ccc1F (stereo unspecified)	0.72	/	-0.4	-1	3.4	1.7	-2.2
COc1ccc2c(c1)C(c1ccc(N3CCOCC3)cc1)=NNC(c1cccnc1)=N2	0.74	/	-1.3	-15	3.6	1.0	1.9
COc1ccc(-c2nn(C)c(=O)c3ccccc23)cc1CNC(=O)C1CCCCC1	0.7	11%	0.0	-1	0.5	2.9	2.7
O=C(Oc1ccccc1F)C1CCN(C(=O)c2ccc(F)cc2)CC1	0.69	8%	-0.1	-4	-2.3	2.3	3.4
CCOCCn1c(-c2ccc(OC)cc2)nc2ccccc21	0.66	?	0.0	-10	-0.1	0.9	2.2
CC(C)(C)C(=O)Nc1ccnn1C1CCN(C(=O)c2cccc(Cl)c2)CC1	0.71	-2%	0.5	1	-4.9	0.7	-0.2
COc1cc(/C(C)=N/NC(=S)NC(C)C)cc(OC)c1OC	/	/	0.6	-3	-3.6	0.9	/
COc1ccc(C(=O)NCCS(=O)(=O)NCc2cccs2)cc1	0.67	-1%	0.2	0	3.0	4.0	1.2
Cc1ccc(NC(=O)CCNS(=O)(=O)c2cccc3nsnc23)cc1	0.66	/	0.4	-1	-0.4	-3.3	1.8

Two of these compounds in a different format.
compound,Ecoli growth,Vif TR-FRET,Bfl-1 A1 inh,Beta2AR agonist,HNF4A DNA FP,LANA-H2B inh,UCH37 inh
COc1ccc2c(c1)C(c1ccc(N3CCOCC3)cc1)=NNC(c1cccnc1)=N2,0.74,/,-1.3,-15,3.6,1.0,1.9
COc1ccc(-c2nn(C)c(=O)c3ccccc23)cc1CNC(=O)C1CCCCC1,0.7,11%,0.0,-1,0.5,2.9,2.7

(cont.)
SMILES	Ecoli growth	Vif TR-FRET	Bfl-1 A1 inh	Beta2AR agonist	HNF4A DNA FP	LANA-H2B inh	UCH37 inh
CN(CCNC(=O)c1ccc(N2CCCC2=O)cc1)CCc1ccccc1	0.75	5%	0.5	-10	4.4	-4.4	0.3
COc1ccc(OC)c(NC(=O)CC2SC(=N)N(c3ccccc3)C2=O)c1 (stereo unspecified)	0.72	-9%	-0.2	3	1.6	-1.6	0.0
COc1ccc(C(=O)C2CCCCC2=O)cc1 (stereo unspecified)	0.72	3%	0.1	-3	3.6	8.7	0.0
Cc1nn(Cc2ccc(Cl)cc2)c(C)c1NC(=O)C(c1ccccc1)c1ccccc1	0.7	9%	0.7	-3	-1.1	3.0	1.8
O=C(CN1C(=O)CSc2ccc(S(=O)(=O)N3CCCCCC3)cc21)NCCc1ccccc1	0.67	1%	/	-5	8.9	/	0.3
COc1cccc(OCc2cc(C(=O)N3CCN(c4ccccc4O)CC3)no2)c1	0.62	/	-3.0	3	-5.1	-2.2	0.4
COc1ccc(NC(=O)c2ccc3c(SCC(=O)O)c4c(nc3c2)CCCC4)c(OC)c1	0.71	25%	-0.5	6	1.3	2.8	5.7
CCOC(=O)C(C(=O)OCC)C(=O)c1cc(OC)c(OC)c(OC)c1	0.71	-6%	0.9	3	6.2	-2.0	2.6
NC(=O)c1ccc(NC(=O)COC(=O)CCCc2c[nH]c3ccccc23)cc1	0.67	-3%	0.8	6	4.1	0.2	1.7
Oc1cccc(/C=N/Nc2ncnc3c2ncn3Cc2ccccc2)c1	/	/	0.4	0	-2.6	5.2	/
CCOC(=O)C1C(c2ccc(O)c(OC)c2)NC(=S)NC1(O)C(F)(F)F (stereo unspecified)	0.69	9%	1.3	5	-3.5	5.2	1.1
Cc1onc(-c2ccccc2)c1C(O)c1ccc(F)cc1 (stereo unspecified)	0.64	-5%	-0.3	2	0.8	-4.2	1.5
O=c1[nH]cnc2c1ncn2[C@@H]1O[C@H](CO)[C@@H](O)[C@H]1O	/	/	/	-3	-0.6	12	-0.7
COc1ccc(-c2nc(CN(Cc3cnn(C)c3)C(C)C)c(C)o2)c(OC)c1	0.69	/	0.9	-4	2.0	-5.5	-1.1
CC(Nc1nc(=S)nc(Nc2ccc(F)cc2)[nH]1)c1ccccc1 (stereo unspecified)	0.69	/	0.7	2	-0.6	-0.8	0.7
CC(=O)Nc1ccc2oc(-c3cc(F)c(F)cc3Cl)nc2c1	0.7	-4%	-5.2	-20	0.6	3.7	-11
CCOC(=O)CCn1c(=O)c2c(nc(Br)n2Cc2ccccc2)n(C)c1=O	0.7	26%	0.3	5	1.9	2.1	0.0
C/C(CC(=O)NC1CCCCC1)=N\NC(=O)Cc1ccc(-c2ccccc2)cc1	/	/	0.1	-7	0.8	-6.5	/
CCN(CC)S(=O)(=O)c1ccc(N2CCN(C)CC2)c(NC(=O)CN2C(=O)NC3(CCCCC3)C2=O)c1	0.64	/	/	-1	1.9	/	1.6
O=C(Cc1cnc2ncnn2c1)N1CCc2c([nH]c3ccccc23)C1c1ccccn1 (stereo unspecified)	0.72	/	-0.1	-4	-1.6	-2.6	4.5
CS(=O)(=O)Nc1ccc(S(=O)(=O)NCCc2ccccc2)cc1	0.72	2%	1.0	10	-2.2	2.7	0.7
c1ccc(-c2nc(N3CCOCC3)cc(N3CCOCC3)n2)cc1	0.7	9%	-0.2	5	6.6	-1.9	4.1
Cc1[nH]c2ccccc2c1/C=C(\C#N)C(=O)NCc1ccccc1	0.67	-9%	-0.5	-1	12	1.6	0.6
Cc1c(Cl)cccc1NC(=S)NC1CC1	0.68	-10%	0.8	-3	2.2	-0.3	-2.5
CCC(=O)Nc1c(-c2ccc3ccccc3c2)nc2ccccn12	0.68	-3%	0.2	-4	2.1	-1.0	-78
O=C(NNS(=O)(=O)c1ccccc1C(F)(F)F)c1cccc(S(=O)(=O)Nc2ccccc2Cl)c1	0.65	/	-0.6	0	1.4	4.8	1.4
O=C(NCc1ccccn1)c1ccc(CNS(=O)(=O)c2cccc(Cl)c2)cc1	0.67	/	0.5	-10	0.1	-1.7	2.7
COc1ccc(/C=C2\SC(=O)N(CC(=O)NC3C=CS(=O)(=O)C3)C2=O)cc1 (stereo unspecified)	0.69	/	-1.2	-2	2.3	2.9	4.2
Cc1ccc2c(c1)C1CCCC3C1N2CC(=O)N3Cc1ccccc1 (stereo unspecified)	/	7%	0.8	/	/	0.3	/
C=C(C(=O)Oc1c(C(C)(C)C)cccc1C(C)(C)C)c1ccccc1	0.71	/	0.1	7	-1.4	2.7	4.8
CCCCc1c(O)nc(SCC(=O)N2CCOCC2)n(-c2ccccc2C)c1=O	0.7	1%	-0.4	1	2.2	-1.7	4.1
O=C(O)CNS(=O)(=O)c1ccc2c3c(cccc13)C(=O)N2	0.67	15%	1.1	9	-8.0	0.7	-426
CN1CCCN(Cc2ccccc2Br)CC1	0.63	/	-0.6	-8	2.0	5.4	2.9
CCOC(=O)CCC(=O)c1c(C)oc2ccc(OC)cc12	0.77	-3%	0.3	12	1.1	-0.5	5.3
Cc1ccc(Oc2ncnc(N)c2[N+](=O)[O-])cc1	0.67	8%	1.2	7	1.3	0.6	1.1
Cc1nnc(NC(=O)CCn2cnc3ccccc3c2=O)s1	0.72	-4%	0.3	-5	-1.3	-0.8	-2.2
CCc1ccc(-n2c(C)cc(/C=N/NC(=O)c3ccncc3)c2C)cc1	/	?	0.8	-3	12	-0.2	/
O=C(c1cccc(N2C(=O)C3CC=CCC3C2=O)c1)N1CCCCCC1 (stereo unspecified)	0.67	-2%	/	-2	-2.3	/	1.6
Fc1ccc(-c2nnn3c2nc(NCc2ccccc2)c2ccccc23)cc1	0.62	-289%	-0.5	-3	-3.5	1.4	-241
CC(NC(=O)CN(C)Cc1ccc(Br)cc1)c1ccccc1 (stereo unspecified)	0.66	0%	-0.3	-6	-2.2	5.2	-1.0
O=C(COC(=O)c1cnccn1)c1ccc(Br)cc1	0.71	29%	-0.4	1	3.3	-0.1	3.6
O=C(O)c1ccc(/C=N/Nc2ccc(S(=O)(=O)N3CCCC3)cc2[N+](=O)[O-])cc1	/	-1%	1.1	16	0.0	-5.7	/
COc1cc(OC)cc(C(=O)Nc2ccc(S(=O)(=O)N3CCOCC3)cc2)c1	0.72	/	3.5	7	1.5	-3.3	1.4
CC(C)CC(=O)NC(=S)Nc1nc(-c2cccc3ccccc23)cs1	0.72	0%	0.4	14	8.7	0.2	5.8
COc1ccc(NC2CCCN(C(=O)c3ccc(CSC)o3)C2)cc1OC (stereo unspecified)	0.67	/	0.6	-1	-2.7	-5.5	3.4
CN(CC(=O)NC1CC(C)(C)NC(C)(C)C1)S(=O)(=O)c1cc(Cl)ccc1Cl	0.69	/	0.0	5	-2.5	2.5	3.7
CCOc1ccc(NC(=S)N2CCn3c(nc4ccccc43)C2)cc1	/	-4%	-0.5	/	/	9.2	5.5
Cn1c(CSCc2ccc(Cl)c(Cl)c2)n[nH]c1=S	0.62	/	0.6	18	-3.4	-4.3	3.4
O=C(c1cccc(S(=O)(=O)Nc2ccccc2Cl)c1)N1CCCCCC1	/	/	0.7	5	0.1	-0.7	/
Cc1ccc(OCCNC(=O)c2ccc(NC(=O)CC3SC(N4CCCC4)=NC3=O)cc2)cc1 (stereo unspecified)	0.67	3%	0.6	-6	3.1	4.9	3.9
Cc1ccc(S(=O)(=O)Nc2ccc3nc(-c4cccn4C)[nH]c3c2)cc1	0.71	3%	-1.0	-1	3.5	11	3.2
CCCc1cc(=O)oc2c(C)c(OCC(=O)N3CCC(C(=O)O)(c4ccccc4)CC3)ccc12	0.72	/	-0.2	-16	-5.7	0.7	-40
COc1cccc(/C=C2\SC(=S)N(CC(=O)N(C)C3CCS(=O)(=O)C3)C2=O)c1 (stereo unspecified)	0.63	4%	0.1	-3	0.3	-2.3	8.4
Cc1ccccc1N(Cc1ccccc1F)S(C)(=O)=O	0.71	-5%	/	8	2.1	/	2.5

High-throughput results: PubChem, several laboratories

Not a hit list. About 2.1% of those tested had a hit in this group.
